# Menin MLL FP FL: displaces fluorescein MLL peptide from human menin; 290,000 tested, under 10 active; FP activity change, % at 61.4 µM; Fluorescence polarization, fluorescein-MLL peptide displacement from menin; inconclusive = falling polarisation curve, or a change in total fluorescence; inactive = total fluorescence flat and polarisation flat or rising; no compound was filed as active; the % refers to the polarisation; negative = inhibition;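 also: % of control where 0% means no effect; inhibitors lower the polarisation; unlabelled MLL peptide was the positive control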
# Sfp PPTase inh: Sfp phosphopantetheinyl transferase inhibition | Biochemical Sfp PPTase activity, qHTS | Potency, µM, for the others: max response, negative = inhibition, actives largely listed as inhibitors | 3.5% of 310,000 active; active = well fitted inhibition curve with a large enough effect; inconclusive = small, poorly fitted or top-dose-only effect, or another doubt; inactive = no such curve, though single readings can be large or run the other way;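 also: the enzyme is Sfp with the accession as filed and its product quenches rhodamine fluorescence; potency is read from the fitted curve at half-maximal effect; 0% = enzyme reaction without inhibitor and -100% = no enzyme wells; top concentration of the series not given in the record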
#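 Compounds were incubated with enzyme (final 15 nM) for 15 min at room temperature before substrate addition started the reaction. Fluorescence at 525 nm excitation, 598 nm emission was recorded immediately and after 30 minutes.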
# gsp agonist: agonists of gsp mutant (McCune-Albright syndrome); gsp mutant cells, cAMP HTRF, 30 min; control for the full effect not named in the record; Potency, µM (titrated, usually from 76.9 µM), inactives show top-dose activation (cAMP increase), usual class: activators; 0.13% of 340,000 active; active = well fitted activation curve with a large enough effect; inconclusive = small, poorly fitted or top-dose-only effect, or another doubt; inactive = no such curve, though single readings can be large or run the other way; cell line not stated here;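 also: phosphodiesterase inhibitor Ro 20-1724 added with compounds to block cAMP breakdown; potency is read from the fitted curve at half-maximal effect; nearly all actives have a fitted effect of over 60% in size; about a fifth of the inactives were tested at one dose only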
#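 Cells in DMEM/10% FBS with G418 were pretreated with compounds in DMSO plus […] (300 uM stock) for 30 min at 37C. cAMP was measured by HTRF (cAMP-d2 plus anti-cAMP antibody-K) after 30 min at room temperature.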
# ClpP mod: qHTS Assay for Activators of ClpP; AID 651965, 2013; purified B. subtilis ClpP, FRET peptide cleavage, 20 min; Potency, µM (series often up to 57.5 µM), for the others: at the highest dose activity change, negative = active; 1.9% of 340,000 active; active = well fitted falling curve with a large enough effect; inconclusive = small, poorly fitted or top-dose-only effect; inactive = no such curve, though single readings can be large or run the other way; also: potency is read from the fitted curve at half-maximal effect; the source files actives as falling curves though it sought activators and does not explain the sign; nearly all actives have a fitted effect of over 65% in size; many hits overshoot -100%
# Target sequence (P80244 whole entry, looked up): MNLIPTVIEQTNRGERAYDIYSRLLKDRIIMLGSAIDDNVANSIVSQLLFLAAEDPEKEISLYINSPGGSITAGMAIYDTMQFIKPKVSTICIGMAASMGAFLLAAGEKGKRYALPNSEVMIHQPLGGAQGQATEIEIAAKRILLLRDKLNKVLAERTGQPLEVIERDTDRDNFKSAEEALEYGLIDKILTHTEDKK
#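 FRET quenching reversal measured ClpP activation: 10 microg/mL B. subtilis ClpP at pH 8 with the FRET-FV decapeptide, read at 430 nm after 320 nm excitation. The 20-min minus 0-min signal was scaled between DMSO/no-enzyme wells and ADEP (5.8 microM final).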
# TRPV1 PAM: human TRPV1 potentiation. 0.02% of 320,000 active. potentiation, % at 8.33 µM. Q8NER1. TRPV1-expressing cells, Fluo-8 calcium influx, capsaicin EC20 potentiation; host cell line not named in the record; control for the full effect not named in the record; active means potentiation above 80%; inconclusive means 30% to 80%; inactive means below 30%; also: 0% is about no effect
#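 Cells expressing TRPV1 were dye-loaded with Fluo-8 and read kinetically: 10 s baseline, 3 min after compound (agonist portion), then 2 min after EC20 capsaicin (allosteric enhancer portion). Calcium-bound dye fluorescence at 480/520 nm.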
# D2 potentiator: potentiates the human D2 dopamine receptor allosterically | P14416 | DiscoveRx D2 beta-arrestin cells, luminescence, 90 min; 100% = 57 uM dopamine signal | potentiation, % (concentration not given with the values) | 0.23% of 360,000 active | AID 624464; active = potentiation of 50% or more; inconclusive = 30% to 50%; inactive = 30% or less;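 also: compound concentration not given in the record; tested on top of an EC20 dose of dopamine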
# Target sequence (P14416 whole entry, looked up): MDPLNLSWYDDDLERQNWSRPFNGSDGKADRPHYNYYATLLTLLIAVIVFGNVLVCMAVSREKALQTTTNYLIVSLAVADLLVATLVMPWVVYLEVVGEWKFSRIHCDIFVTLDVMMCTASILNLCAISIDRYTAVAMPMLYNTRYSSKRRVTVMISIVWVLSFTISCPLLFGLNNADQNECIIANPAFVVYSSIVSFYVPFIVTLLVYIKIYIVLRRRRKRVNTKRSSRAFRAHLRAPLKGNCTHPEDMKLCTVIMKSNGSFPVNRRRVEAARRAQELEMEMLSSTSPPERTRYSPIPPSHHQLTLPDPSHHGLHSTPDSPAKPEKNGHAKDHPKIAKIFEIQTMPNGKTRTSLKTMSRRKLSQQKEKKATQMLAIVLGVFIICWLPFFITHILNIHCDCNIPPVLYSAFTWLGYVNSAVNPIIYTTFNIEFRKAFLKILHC
#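 PathHunter D2 cells, attached overnight at 37 deg C, received compound in DMSO plus dopamine at EC20 (50 nM final) for 90 min at 37 deg C. Beta-arrestin recruitment was read as luminescence after 1 h with detection reagent at ambient temperature.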
# gsp antag: antagonists of gsp mutant (McCune-Albright syndrome). 0.4% of 340,000 active. AID 624288. Potency, µM (highest dose often 76.9 µM), for inactives: at the top dose activity change, negative = inhibition, actives largely listed as inhibitors. gsp-mutant cells, cAMP HTRF, 30 min; control for the full effect not named in the record; active = falling curve of any shape with a large fitted effect; inconclusive = falling curve, mostly with a smaller effect; inactive = flat or rising curve; cell line not stated here;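 also: intracellular cAMP measured with PDE inhibitor Ro 20-1724 present during compound exposure; potency is read from the fitted curve at half-maximal effect; % is scaled to controls: 0 for no effect and ±100 for the full control effect; nearly all actives have a fitted effect of over 65% in size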
#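 HTRF cAMP read-out (cAMP-d2 plus anti-cAMP antibody-K in lysis buffer, 30 min RT). Before lysis, cells are exposed to compounds with […] for 30 min at 37C in DPBS containing Ca/Mg, BSA and Tween 20.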
# * hit, by the source's call; ? = inconclusive; . = no result given; & = joins results of further samples; [ ] = dose if it differs, or a comment.
cpd	SMILES	Menin MLL FP FL	Sfp PPTase inh	gsp agonist	ClpP mod	TRPV1 PAM	D2 potentiator	gsp antag
1	O=c1nc2ccccn2c2ccc(S(=O)(=O)N3CCCCC3)cc12	-0.9	27%	35%[15.4 µM]	.	-10	-3	18%
2	NC(=O)NC(c1ccccc1)c1ccccc1F (stereo not given)	3.2	26%	-35%[inhibitor]	1.5%	7	-13	8%
3	COC(=O)c1oc2nc(C)cc(C)c2c1N	-0.9	3%	6%	28µM*	2	-13	17%
4	Cc1[nH][nH]c(=O)c1C=NCc1cccc(C(F)(F)F)c1	1.6	18%	-5%	-0.7%	-18	3	5%
5	O=C(c1cccc(S(=O)(=O)N2CCOCC2)c1)N1CCN(c2ccc(F)cc2)CC1	3.3	7%	-4%	0.3%	2	-10	-14%
6	COc1ccccc1-c1cccc([C@@H]2C[C@H]3[C@H](CON3C)CN2C)c1	.	.	.	-2.8%	.	-22	8%
7	CC(C)OCCCNC(=O)c1cn(C)c2ccc(S(=O)(=O)N3CCCC3)cc2c1=O	.	15%	-37%[inhibitor]	-2.3%	7	-6	10%
8	N#Cc1c(N2C(=O)Nc3ccccc3N2O)sc2c1CCCC2	3.3	6%	7%[15.4 µM]	.	19	3	5%
9	CC(C)C(=O)Nc1cccc(NC(=S)NC(=O)c2cccs2)c1	.	8%	-4%	0.3%	1	-24	-8%
10	O=C(COc1ccc(Cl)cc1)Nc1ccc2oc(=O)ccc2c1	5.4	-10%	1%[15.4 µM]	.	-12	6	2%
11	CC(=O)Nc1nc(C)c(-c2nc3ccc([N+](=O)[O-])cc3[nH]2)s1	-3.6	1%	32%	-0.5%	3	6	4%
12	CCC(Cc1ccccc1)NC(=O)CN1C(=O)CSc2ncccc21 (stereo not given)	1.4	5%	13%	0.7%	-12	-9	-8%
13	CC1(c2ccccc2)NC(=O)N(CC(=O)NC(=O)NC2CCCC2)C1=O (stereo not given)	1.2	6%	1%	-0.5%	5	-14	-10%
14	CN1CCN(S(=O)(=O)c2ccc(-c3ccc(S(=O)(=O)N4CCN(C)CC4)cc3)cc2)CC1	-2.4	17%	.	.	-15	.	.
15	Cn1c(=O)cc(OCC(=O)NC2CCCCC2)c2ccccc21	-0.7	1%	?	-2.7%	4	-5	6%
16	COc1cccc(/C=C/C(=O)OCC(=O)Nc2ccc(Cl)c(S(=O)(=O)N(C)C)c2)c1OC	6.7	26%	1%[15.4 µM]	.	9	-8	.
17	COc1ccc(-c2cc3nc(C)c(CCC(=O)N4CCN(c5ccccn5)CC4)c(C)n3n2)c(OC)c1	-4.9	11%	-31%[inhibitor]	.	-2	0	-3%
18	CCC(Sc1nc2ccncc2[nH]1)C(=O)Nc1ccc(C)c(Cl)c1 (stereo not given)	4.5	4%	-65%[inhibitor]	-1.5%	4	-6	-10%
19	O=C(COC(=O)CCCN=C1NS(=O)(=O)c2ccccc21)NNC(=O)c1ccccc1	.	.	-1%	?	11	8	7%
20	Cc1n(CC(O)COC2CCCCC2)c2ccccc2[n+]1C (stereo not given)	0.3	7%	3%	-0.5%	-2	-9	7%
21	O=C(COC(=O)/C=C/c1ccc(C(F)(F)F)cc1)NC1CC1	.	.	-6%[15.4 µM]	-3.2%	-18	-21	9%
22	Cc1c(N=Nc2ccc(O)cc2)c(=O)n(-c2ccccc2)n1C	-0.8	13%	20%[15.4 µM]	2.9%	11	-15	-32%
23	CC(C)Cn1c(N)c(C(=O)COC(=O)CCc2nc3ccccc3s2)c(=O)n(C)c1=O	0.2	14%	-45%[inhibitor]	.	5	-2	-24%
24	O=C(c1cccc(Cl)c1)N1CCC(N2CCC(C(=O)N3CCCC3)CC2)CC1	?	13%	39%	1.6%	2	-9	8%
25	CCOc1ccc(CNC(=O)c2ccc(NC(=O)C3=CSCCO3)cc2)cc1	0.2	7%	?	3.1%	-4	-7	-9%
26	COc1ccccc1N(C)S(=O)(=O)c1ccc(C(=O)NC(C)(C)C)cc1	3.2	10%	-26%	-3.3%	24	-5	-12%
27	CNc1nc(-c2ccc3c(c2)CCN3C(=O)c2ccccc2F)cs1	4.7	-26%	-28%	-0.6%	5	-28	-26%
28	COc1ccc(C(C)=O)cc1Cn1nc(C)c([N+](=O)[O-])c1C	-0.6	15%	6%	.	-3	-3	1%
29	COc1ccc(NCC(=O)N/N=C/C2CCCCC2)cc1	3.3	9%	14%	-0.1%	-3	3	-9%
30	CCCCNS(=O)(=O)c1ccc(OC)c(Cl)c1Cl	0.4	8%	6%	2.2%	-17	-13	2%
31	CC(C)(C)NC(=O)C(c1ccncc1)N(C(=O)C1CSC(=O)C1)c1ccccc1 (stereo not given)	2.1	0%	36%	1.1%	-1	-9	-8%
32	Cc1cc(C)c(C#N)c(Sc2nnnn2-c2ccccc2)n1	2.1	5%	11%	0.8%	-10	-7	0%
33	CC(C)(C)NC(=O)c1oc2ccccc2c1COc1ccccc1	4.8	0%	5%	0.4%	29	-9	-15%
34	Cc1cc(O)ccc1NC(=O)c1ccccc1	-0.6	-3%	-20%	-0.4%	-8	1	-1%
35	COc1cc(C(=O)NCCc2ccc(S(N)(=O)=O)cc2)cc(OC)c1OC	1.2	8%	-16%	-0.5%	?	-6	-3%
36	CCN(CC)S(=O)(=O)c1cc(OC)c(C)cc1C	-3.7	-7%	12%	.	-2	-5	-12%
37	CSc1nc(NCc2ccco2)c2ccccc2n1	4.8	10%	-27%	?	22	-10	-24%
38	COc1cccc(C(=O)OCn2nnc3ccccc3c2=O)c1	-2.6	-11%	-41%[inhibitor]	2.0%	15	-6	6%
39	O=C(CCC(=O)c1ccc(F)cc1)Nc1ccccc1Cl	4.4	4%	9%	0.0%	5	-1	18%
40	CC(N=C1NS(=O)(=O)c2ccccc21)C(=O)N1CCc2ccccc2C1 (stereo not given)	-4.6	16%	-8%[15.4 µM]	1.0%	-9	-5	-4%
41	COc1cccc(NC(=O)COC(=O)CCn2c(C)csc2=O)c1	.	.	40%	0.3%	2	18	-18%
42	COc1ccc(OC)c(NC(=O)C(=O)NNC(=O)c2cccs2)c1	-2.2	9%	-2%	-3.7%	1	5	-7%
43	O=C(Nc1ccccc1)C1=C[C@H](c2ccc(C(F)(F)F)cc2)C[C@H](OCc2ccc(CO)cc2)O1	10	11%	.	-3.0%	13	-7	-11%
44	Cc1onc(-c2c(Cl)cccc2Cl)c1C(=O)N1CCOCC1	2.1	14%	11%[15.4 µM]	.	1	-3	3%
45	Cc1nn(-c2ccccc2)c(Cl)c1C(=O)Nc1nnc(C2CCCCC2)s1	3.5	10%	25%	-2.4%	-16	1	3%
46	COc1ccc(C(=O)NC(=S)Nc2ccc([N+](=O)[O-])cc2C)cc1OC	4.1	56µM*	-37%[inhibitor]	1.6%	-19	-26	-12%
47	CNC(=O)Nc1ccc2nc(C)sc2c1	0.0	-19%	-9%	-13%	22	-5	10%
48	O=C(CSc1nnc(-c2cccc(S(=O)(=O)N3CCCC3)c2)n1-c1ccccc1)Nc1ccc(C(=O)O)cc1	-5.5	-7%	-19%	.	7	-3	-13%
49	N#CC1c2ccccc2C=CN1C(=O)N(c1ccccc1)c1ccccc1 (stereo not given)	.	.	-1%[15.4 µM]	0.2%	.	-38	-32%
50	CCCNS(=O)(=O)c1ccc(NC(=O)Cc2cccs2)cc1	-0.2	7%	-33%[inhibitor]	-0.2%	3	-13	23%

# Next part.
cpd	SMILES	Menin MLL FP FL	Sfp PPTase inh	gsp agonist	ClpP mod	TRPV1 PAM	D2 potentiator	gsp antag
51	CC(C)(C)C(=O)Nc1ccc2c(c1)-c1cc(NC(=O)C(C)(C)C)ccc1C2	5.8	17%	17%	-0.8%	?	2	0%
52	O=C1c2ccccc2-c2onc3c(Oc4ccccc4)cc(O)c1c23	3.2	-12%	.	.	11	.	.
53	CC(=O)n1nc(-c2ccccc2)nc1NCc1ccc(N(C)C)cc1	-1.5	-20%	7%[15.4 µM]	.	6	1	?
54	Oc1ccc2ccccc2c1CN1CCN(c2ccccc2)CC1	2.7	9%	-26%	?	-1	-16	17%
55	CS(=O)(=O)N1CCN(c2ccccc2NC(=O)c2ccc(Br)o2)CC1	3.2	4%	-6%	-3.3%	-17	-2	-21%
56	Cc1ccc(CCNC(=O)C2CCCN(C(=O)N(C)C)C2)cc1 (stereo not given)	0.5	16%	15%	-0.1%	18	-2	12%
57	CCOC(=O)[C@@H]1[C@H]2COc3cc(OC)ccc3[C@@H]2N2C(=O)N(c3ccc(Br)cc3)C(=O)[C@@]12C	9.0	2%	39%	1.3%	-15	-23	-2%
58	COc1ccccc1C1CC(=O)n2c(nc(-c3ccccc3)c2-c2ccccc2)S1 (stereo not given)	.	-6%	-32%[inhibitor]	?	?	-3	0%
59	Cc1nc(-c2cccc(S(=O)(=O)N3CCC(C)CC3)c2)cs1	-0.2	-8%	12%	-1.7%	-11	-4	-7%
60	CC(C)(Cc1nc2ccccc2[nH]1)c1nc2ccccc2[nH]1	.	.	-23%	-0.3%	.	-14	.
61	COC(=O)C(C)(C)ONC(=O)Nc1ccccc1Cl	-1.3	24%	-2%	.	?	-6	-4%
62	C=CCN(CC=C)C(=O)Cc1ccc(F)cc1	0.4	3%	-24%	0.3%	-8	-4	-1%
63	Cc1cc(Br)ccc1OCC(=O)NC1CCCC1	-0.2	16%	?	-0.8%	-17	-16	-11%
64	COC(=O)CCSCC(=O)N1N=C(c2ccc(Br)cc2)CC1c1cccc(OC)c1OC (stereo not given)	1.2	17%	15%[15.4 µM]	.	-9	-9	-24%
65	O=C(CSc1ncccn1)NCc1ccccc1Cl	-2.5	?	11%	-2.6%	-1	0	1%
66	CC(=O)C12CCCCC1CC1C3CC(C)C4(O)CC(=O)CCC4(C)C3CCC12C (stereo not given)	2.5	6%	?	0.3%	13	-2	-15%
67	COc1ccc(S(=O)(=O)c2c(O)c3ccc(C(=O)Nc4ccccc4)cc3[nH]c2=O)cc1	1.6	24%	-26%	-5.3%&1.5%	5	-7	18%
68	COc1cccc(-c2ccc(-c3noc(-c4ccccc4F)n3)c(OC)n2)c1	1.4	-2%	?	14µM*	.	-13	-2%
69	CC(C)(C)OC(=O)N(Cc1ccccc1)Cc1ccc(OCc2cccc(NC(=O)c3ccccc3)c2)cc1	.	.	.	-14%	.	-3	-1%

# Rows are unselected; overall some 5.1% were active at least once.
